From PubChem
HNF4A DNA FP = change in binding of human HNF4A to DNA, primary screen, biochemical, fluorescence polarization, FITC-DNA; Hepatocyte nuclear factor 4-alpha (Homo sapiens), P41235; 1 h; activity change, % at 10 µM; hit rate 0.3% among 360,000; AID 1224865, 2016; in the data active means activity change above about 30%, passing the limit was not always enough;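 further: controls were the assay level and a saturating level of protein; the project sought stronger binding though the title names inhibitors; some compounds called inactive have numbers as strong as hits; positive values seem to mean higher polarization but the record does not say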
Target sequence (P41235 whole entry, looked up): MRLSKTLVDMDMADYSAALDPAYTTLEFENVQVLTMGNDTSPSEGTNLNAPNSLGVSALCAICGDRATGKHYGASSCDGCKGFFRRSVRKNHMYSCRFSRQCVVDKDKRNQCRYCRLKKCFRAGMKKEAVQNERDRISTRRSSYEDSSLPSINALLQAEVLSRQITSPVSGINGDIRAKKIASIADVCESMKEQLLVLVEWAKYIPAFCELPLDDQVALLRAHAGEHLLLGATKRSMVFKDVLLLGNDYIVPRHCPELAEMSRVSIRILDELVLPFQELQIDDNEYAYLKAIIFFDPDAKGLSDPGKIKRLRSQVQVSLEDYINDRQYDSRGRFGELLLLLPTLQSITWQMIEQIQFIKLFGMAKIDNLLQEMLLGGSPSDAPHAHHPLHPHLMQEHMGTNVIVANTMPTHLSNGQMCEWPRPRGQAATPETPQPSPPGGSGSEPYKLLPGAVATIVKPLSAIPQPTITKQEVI
B2AR ag = beta2AR agonists driving receptor internalization, primary screen, cell-based, FAP fluorogen, flow cytometry; Am2.2-beta2AR cells; reference of the scale not given here; Beta-2 adrenergic receptor (Homo sapiens), P07550; response, % (no concentration beside the values); AID 504454, 2011; hit rate 0.43% among 340,000;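 active means response above a set limit, near 3 SD of response in nonfluorescent compounds, cut at about 42% in these data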;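 further: stock transfer was 100 nL into about 11 µL; a reference agonist was the positive control; negative values mostly stem from fluorescent compounds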
Target sequence (P07550 whole entry, looked up): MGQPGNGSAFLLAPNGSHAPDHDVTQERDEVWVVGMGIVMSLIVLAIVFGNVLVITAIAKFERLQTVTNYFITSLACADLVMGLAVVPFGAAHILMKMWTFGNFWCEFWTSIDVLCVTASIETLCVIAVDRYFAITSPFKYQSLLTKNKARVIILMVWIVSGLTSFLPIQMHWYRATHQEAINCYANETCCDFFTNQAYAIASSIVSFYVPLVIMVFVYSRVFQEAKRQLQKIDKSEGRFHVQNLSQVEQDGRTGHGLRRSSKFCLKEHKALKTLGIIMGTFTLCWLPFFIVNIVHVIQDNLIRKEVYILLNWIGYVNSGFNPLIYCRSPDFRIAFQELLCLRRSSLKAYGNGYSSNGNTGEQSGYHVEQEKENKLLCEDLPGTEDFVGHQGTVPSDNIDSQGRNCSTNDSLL
Ecoli growth = E. coli growth inhibition, primary screen, OD600; Escherichia coli growth, 23 h; hits give low values; OD600 absorbance (concentration not given with the values); hit rate 0.21% among 330,000; AID 1053175, 2014;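 active means OD600 absorbance below the run mean of sample wells minus 3.6 SD, in any replicate, cut at about 0.56 in these data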;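 further: stock transfer was 300 nL into about 60 µL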
ALR H2O2 inh = inhibitors of human ALR sulfhydryl oxidase, primary screen, biochemical, H2O2 detection, HRP-luminol luminescence, single point. hit rate 3.8% among 290,000. inhibition, % (test concentration not listed). purified ALR, DTT oxidation. FAD-linked sulfhydryl oxidase ALR (Homo sapiens), P55789;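 active means mean and each replicate at 75% or more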;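 further: stock transfer was 7.5 nL into about 7.5 µL; 0% = neutral wells and 100% = wells with inactivated enzyme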
rRNA inh HTS = reduced GFP signal of wild-type E. coli, primary screen, bacterial rRNA inhibitor project, GFP/RFP fluorescence, OD600, single point | hit rate 1.6% among 350,000 | GFP signal change (wild-type ribosome), % (concentration not given with the values) | E. coli WT GFP vs humanized-ribosome RFP mutants, 24 h; hits give low values; DMSO median 0, no signal -100;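 active means significant combined selectivity score with lowered wild-type GFP, culture density cut under 30%, mutant RFP and density less affected; inactive means any of these conditions unmet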; further: one replicate is shown; some compounds called inactive have numbers as strong as hits
UCH37 inh = inhibitors of human UCH37 deubiquitinase, primary screen, biochemical, Ub-AMC cleavage, fluorescence | Ubiquitin carboxyl-terminal hydrolase isozyme L5 (Homo sapiens), Q9Y5K5 | purified proteasome/UCH37 | inhibition, % (no concentration beside the values) | hit rate 0.33% among 330,000;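 active means mean of two replicates above 20%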;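 further: 0% = compound-free wells with enzyme and 100% = wells lacking proteasome; stock transfer was 100 nL into about 20 µL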
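System: Proteasome-associated human UCH37 deubiquitinase; Input: 0.15 nM proteasome in added enzyme buffer; Also added: Ub-AMC substrate from 1 µM stock; Incubation: 30 min compound-proteasome preincubation then 25 min substrate reaction, room temperature; Detection: fluorescence, ex 355 nm, em 460 nm; Read-out: % inhibition of Ub-AMC cleavage fluorescence; Benchmarks: no-proteasome and no-compound wells.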
FGF22 binding = binders of human FGF22 protein, primary screen, FGF22 synaptogenesis inhibitor project, biophysical, thermal shift, single point; calls only at 9.99 µM; hit rate 1.5% among 340,000; recombinant FGF22 thermal shift, SYPRO orange fluorescence; percent of sucrose octasulfate shift, DMSO zero; Fibroblast growth factor 22 (Homo sapiens), Q9HCT0;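 active means melting point raised past a set limit in the mean and every replicate; three in four hits are not shown here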
Target sequence (Q9HCT0 whole entry, looked up): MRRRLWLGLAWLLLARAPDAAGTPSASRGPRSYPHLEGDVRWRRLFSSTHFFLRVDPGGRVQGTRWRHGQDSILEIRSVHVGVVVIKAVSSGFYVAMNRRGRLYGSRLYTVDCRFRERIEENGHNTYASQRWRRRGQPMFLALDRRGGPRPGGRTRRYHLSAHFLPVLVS
rRNA inh HTS OD600 = second read-out of rRNA inh HTS, no call of its own (marks repeat the call); OD600 change, %; measured here: OD600 growth;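 optical density of the mix in the first replicate; 0 = DMSO median and -100 = no signal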
rRNA inh HTS RFP = further read-out of rRNA inh HTS, marked with its call; RFP signal change, %; measured here: RFP humanized mutant strains;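 first replicate; 0 = DMSO median and -100 = no signal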
The depositor's hits bear a star; i = inactive; · = not tested or not shown.

SMILES | HNF4A DNA FP | B2AR ag | Ecoli growth | ALR H2O2 inh | rRNA inh HTS | rRNA inh HTS OD600 | rRNA inh HTS RFP | UCH37 inh | FGF22 binding
COc1ccc(-n2c(SCC(=O)Nc3cccc(S(N)(=O)=O)c3)nc3ccccc3c2=O)cc1OC | 2.1 | -1.4 | 0.725 | · | -10.3 | -3.2 | -5.5 | -0.2 | i
COc1ccc(S(=O)(=O)NCCC(=O)OCc2cc(=O)oc3cc(C)ccc23)cc1[N+](=O)[O-] | -0.7 | 4.4 | 0.708 | · | 12.5 | 7.1 | 2.1 | 6.1 | i
CCCCCC(=O)Nc1cccc(C2=NOC3(C2)C[C@@H](C(N)=O)N(C(=O)c2cc([N+](=O)[O-])cc([N+](=O)[O-])c2C)C3)c1 (stereo partly specified) | 1.9 | 3.1 | · | · | 6.7 | 13.9 | -4.6 | 0.7 | i
COc1ccc(CCNC(=O)c2ccc(NC(=O)CC3SC(N4CCCC4)=NC3=O)cc2)cc1 (stereo unspecified) | -1.5 | -8.0 | 0.704 | 0.3 | 4.1 | 6.9 | 3.0 | -2.8 | i
Cc1ccc(-c2nc(-c3ccccn3)no2)cc1 | 4.4 | -7.8 | 0.723 | -8.5 | · | · | · | 0.3 | ·
COc1ccc(C(=O)Nc2cccc(-c3ccc(N4CCOCC4)nn3)c2)cc1OC | -2.3 | 11.6 | 0.645 | · | -0.5 | 2.4 | 3.0 | 0.6 | i
CCOC(=O)c1c(C)n(-c2ccc(C)cc2)c2ccc(OCC(O)CN3CCN(C)CC3)cc12 (stereo unspecified) | 6.5 | 26.2 | 0.666 | · | -59.9 | -81.5 | -29.4 | 6.0 | i
COCCN1CCn2c(nc3cc(Nc4nnc(C)c5ccccc45)ccc32)C1 | 3.6 | -1.3 | 0.62 | -13.9 | 5.3 | -6.5 | 2.5 | 6.0 | i
O=C(COC(=O)c1cnccn1)c1ccccc1 | -0.2 | -7.7 | 0.711 | · | · | · | · | 1.4 | ·
COc1ccccc1NS(=O)(=O)c1cccc(C(=O)N/N=C(/C)c2ccc(-n3ccnc3)cc2)c1 | 1.6 | 8.7 | 0.682 | · | -7.0 | -12.1 | 7.5 | 6.1 | i
CCC(=O)c1ccc(OCC(=O)OCC(=O)Nc2c(C)n(C)n(-c3ccccc3)c2=O)cc1 | 0.6 | 6.1 | · | -18.2 | 6.4 | 2.2 | -0.7 | · | ·
CCOc1cc(/C=N/Nc2nc(=O)[nH]nc2C)ccc1O | 3.0 | -2.6 | · | 99.0* | 18.7 | 4.0 | 0.6 | · | i
CN(C)C(/C=C/Nc1ccc([N+](=O)[O-])cc1)=C(C#N)C#N | -0.3 | -4.0 | 0.701 | -33.3 | 7.3 | 9.2 | 2.6 | 5.9 | i
CC(OC(=O)c1ccc(NC(=O)CC#N)cc1)C(=O)NC(c1ccccc1)c1ccccc1 (stereo unspecified) | 8.4 | 2.9 | 0.693 | 11.6 | -6.3 | 2.2 | 3.8 | -1.3 | i
Cc1c(Cl)cccc1-c1ccc(C(=O)N2CCN(c3ccc([N+](=O)[O-])cc3)CC2)o1 | 3.2 | 1.9 | 0.752 | 9.2 | · | · | · | 2.1 | ·
CCOC(=O)C1CCCCN1Cc1cc(Cl)ccc1O (stereo unspecified) | 0.3 | 2.3 | 0.667 | 17.8 | · | · | · | 3.5 | ·
OCCCn1c(C2CCCN2c2nc(-c3ccc(F)cc3)cs2)nc2cc(Cl)c(N3CCCCC3)cc21 (stereo unspecified) | 0.9 | 2.7 | 0.694 | -27.3 | 4.0 | -1.0 | -3.5 | -0.4 | i
CCCC(=O)Nc1nc(-c2ccc(Cl)s2)cs1 | -1.1 | -8.5 | 0.651 | · | -12.0 | -6.6 | -1.6 | -0.3 | i
Cc1ccc(C(C(=O)NC2CCCC2)N(Cc2ccco2)C(=O)CCC(=O)Nc2cc(C)on2)cc1 (stereo unspecified) | -0.5 | 3.5 | 0.703 | 3.2 | · | · | · | 3.4 | ·
COc1cccc(CN2CC(C(=O)NCC3CCOCC3)CCC2=O)c1 (stereo unspecified) | -1.9 | -5.5 | 0.67 | -5.2 | 8.4 | 15.9 | 2.8 | 3.5 | i
O=C(NCC(=O)N(c1ccccc1F)C(C(=O)NC1CCCC1)c1ccncc1)c1ccco1 (stereo unspecified) | -1.1 | -3.5 | 0.707 | · | 4.0 | 7.9 | -1.8 | -1.2 | i
C=CCn1c(-c2c(C)nc3cc(C)ccn23)n[nH]c1=S | 1.7 | -5.2 | 0.7 | 41.5 | 9.5 | 10.2 | -0.4 | 2.9 | i
COc1cc2cnc(CCCC#N)cc2cc1OC | -1.1 | 1.3 | 0.676 | -9.2 | -1.3 | 10.4 | 6.7 | -6.1 | i
Cc1cc(C)n(CCC(=O)Nc2cccc(F)c2)n1 | 1.1 | -3.6 | 0.638 | -3.3 | 10.4 | 6.1 | -3.5 | 1.9 | i
Cc1ccc(CC2CC(=O)N(CCc3ccccc3)C2=O)cc1 (stereo unspecified) | -0.8 | -2.1 | 0.705 | -2.6 | -10.7 | 4.7 | 0.1 | 3.4 | i
CC(=O)Nc1ccc(C(=O)CN2C(=O)NC3(CCCc4ccccc43)C2=O)c(F)c1 (stereo unspecified) | 4.2 | 6.2 | 0.707 | -12.3 | -1.9 | -2.6 | 0.9 | -1.1 | i
Cc1cc(N2CCN(C)CC2)nc(-c2ccccc2O)n1 | 0.8 | 1.3 | 0.629 | 2.4 | 0.9 | -13.2 | 0.3 | -4.7 | i
O=C(CNC(=S)N(Cc1ccc(F)cc1)C1CCCCC1)NCC1CCCO1 (stereo unspecified) | -0.8 | -0.9 | 0.691 | -1.9 | 4.2 | 7.1 | -1.5 | 3.1 | i
COc1ccc(C(=O)Nc2cccc(C(C)=O)c2)c(OC)c1OC | -3.1 | -10.5 | 0.69 | -11.9 | -18.2 | -23.2 | -9.4 | 0.8 | ·
COc1ccc(N(Cc2cc3ccccc3[nH]c2=O)S(=O)(=O)c2ccc(OC)cc2)cc1 | -5.0 | -7.2 | · | -34.1 | -2.2 | -8.6 | 1.4 | · | i
CC(C)=NNC1=NC(C)(C)Cc2ccccc21 | 1.0 | 4.2 | 0.669 | -7.5 | · | · | · | -1.7 | i
CCOc1ccccc1N(CC(=O)Nc1cccnc1)S(C)(=O)=O | -0.2 | -2.3 | 0.726 | -6.0 | · | · | · | 3.9 | ·
COc1cccc(N(C(=O)Cn2nnc3ccccc32)C(C(=O)NCc2ccco2)c2cccnc2)c1 (stereo unspecified) | -1.9 | 13.3 | 0.713 | · | · | · | · | 2.2 | ·
Cc1cccc(C)c1NC(=O)C(C)Sc1n[nH]c(-c2ccncc2)n1 (stereo unspecified) | 3.4 | -0.4 | 0.689 | · | 2.1 | 5.6 | -1.1 | 3.6 | i
CC(c1ccccc1)n1c(Br)nc2c1c(=O)[nH]c(=O)n2C (stereo unspecified) | -2.2 | -4.4 | 0.627 | -6.3 | 5.5 | 11.2 | -2.6 | 1.5 | i
COCCN(C(=O)c1cc(Cl)nc2ccccc12)c1c(N)n(Cc2ccccc2)c(=O)[nH]c1=O | -0.7 | -1.0 | 0.708 | -3.1 | 3.9 | -0.4 | 0.9 | 0.5 | i

Quoted at random: 3 records from the list, in no set order.
SMILES | HNF4A DNA FP | B2AR ag | Ecoli growth | ALR H2O2 inh | rRNA inh HTS | rRNA inh HTS OD600 | rRNA inh HTS RFP | UCH37 inh | FGF22 binding
COc1ccc(S(=O)(=O)NCCC(=O)OCc2cc(=O)oc3cc(C)ccc23)cc1[N+](=O)[O-] | -0.7 | 4.4 | 0.708 | · | 12.5 | 7.1 | 2.1 | 6.1 | i
CC(=O)Nc1ccc(C(=O)CN2C(=O)NC3(CCCc4ccccc43)C2=O)c(F)c1 (stereo unspecified) | 4.2 | 6.2 | 0.707 | -12.3 | -1.9 | -2.6 | 0.9 | -1.1 | i
COc1ccc(C(=O)Nc2cccc(C(C)=O)c2)c(OC)c1OC | -3.1 | -10.5 | 0.69 | -11.9 | -18.2 | -23.2 | -9.4 | 0.8 | ·

(continued)
SMILES | HNF4A DNA FP | B2AR ag | Ecoli growth | ALR H2O2 inh | rRNA inh HTS | rRNA inh HTS OD600 | rRNA inh HTS RFP | UCH37 inh | FGF22 binding
COC(=O)c1cc(NC(=O)/C=C/c2ccc3c(c2)OCO3)cc(C(=O)OC)c1 | -0.1 | 13.9 | 0.759 | -4.2 | · | · | · | -158.8 | ·
Cc1cc(NC(=O)c2cccc([N+](=O)[O-])c2)n(-c2ccccc2)n1 | 0.0 | -4.3 | 0.724 | -3.5 | · | · | · | -0.8 | ·
Cc1cc(C(=O)CN2C(=O)NC(CCS(C)(=O)=O)C2=O)c(C)n1C1CC1 (stereo unspecified) | 2.2 | 4.2 | 0.718 | · | 24.8 | 10.5 | 0.6 | 2.3 | i
Cc1cc(-c2nnc(SCC(=O)Nc3cccc(F)c3)n2N)n[nH]1 | 1.0 | -4.4 | 0.659 | -3.5 | 5.9 | 9.9 | -1.4 | 4.8 | i
Cc1cccc(N2CCN(C(=S)c3ccc(-c4ccccc4[N+](=O)[O-])o3)CC2)c1 | 0.4 | -9.2 | 0.75 | -2.6 | · | · | · | 5.1 | ·
Cc1cccc(N2CCN(C(=O)CSc3nc4ccccc4nc3N3CC(C)OC(C)C3)CC2)c1C (stereo unspecified) | 4.4 | 6.1 | 0.666 | -1.6 | 3.4 | 5.6 | 2.7 | -17.1 | i
CCOC(=O)CSc1nnc2c3ccccc3n(CC)c2n1 | 1.8 | 13.9 | 0.68 | · | 0.6 | 1.3 | -3.6 | 0.6 | i
O=C(Nc1ccccc1C(=O)Nc1ccccn1)c1cccc([N+](=O)[O-])c1 | -1.4 | -4.4 | 0.667 | 0.1 | -2.3 | -2.0 | 0.9 | 4.6 | i
COC(=O)c1ccc(NC(=O)Cc2ccccc2)cc1 | -0.4 | 10.9 | 0.684 | -1.0 | · | · | · | 3.1 | ·
O=C(CSc1nc(C(F)(F)F)cc(=O)[nH]1)N1CCOCC1 | 5.2 | -3.4 | 0.713 | -1.1 | 16.0 | 12.6 | 0.2 | -1.1 | i
CCCC[C@@H]1CNC(=S)N1CCCc1cc(OC)c(OC)c(OC)c1 | -3.0 | -3.2 | · | -12.8 | 6.5 | 9.6 | 7.4 | 3.3 | i
CC(C)c1ccc(C(=O)N2CCCCC2c2cc(C(=O)NCc3cccnc3)no2)cc1 (stereo unspecified) | 1.8 | · | · | · | -7.6 | -12.4 | -1.4 | · | i
O=C(O)CCCNc1c(C(=O)Nc2ccc(Cl)cc2)cc([N+](=O)[O-])cc1[N+](=O)[O-] | -6.5 | 7.0 | 0.692 | -3.2 | · | · | · | 12.4 | ·
Cc1ccc(S(=O)(=O)/N=C(\c2ccc(F)cc2)n2c(C)nc3ccccc32)cc1 | 2.7 | -3.0 | · | -7.4 | · | · | · | · | ·
Cc1cc(C(c2ccc(C)o2)c2ccc(C)o2)c(O)c([N+](=O)[O-])c1 | 1.0 | -1.4 | 0.694 | 14.9 | · | · | · | 4.6 | ·
O=C(NNS(=O)(=O)c1ccccc1)C1CCN(S(=O)(=O)c2ccc(Cl)cc2)CC1 | -2.3 | 0.9 | 0.743 | 13.5 | · | · | · | -0.5 | ·
C=CCn1c(SCC(=O)NC)nc2sc3c(c2c1=O)CCC3 | 3.6 | -6.8 | 0.66 | -7.1 | · | · | · | 8.1 | ·

This is a subset; rates above refer to the full screens.
